# miR-21 reporter = miR-21 reporter, rising signal. HeLa miR-21 FLuc reporter, luciferase, 48 h. Potency, µM (doses to about 38.3 µM), for inactives: at the highest dose reporter change, positive = more light. 340,000 tested, under 10 active. AID 2288; active = well fitted rising curve with a large enough effect; inconclusive = small, poorly fitted or top-dose-only effect; inactive = no such curve, though single readings can be large or run the other way;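 also: % of control where 0% means no effect; miR-21 action dims this reporter so a rising signal means less miR-21 action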
#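 HeLa cells stably expressing CMV-driven firefly luciferase with a downstream miR-21 binding sequence, endogenously expressing miR-21, were treated with titrations (up to about 40uM final) for 48 hours at 37 degree Celsius. Luciferase luminescence was read after lysis.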
# Rango-impB inh = Rango-importin beta binding inhibition. Rango CFP/YFP FRET sensor + importin beta, 45 min. Potency, µM (doses to about 92.2 µM), without a hit: at the highest dose inhibition of complex formation. 340,000 compounds, 0.031% hits; active = rising FRET ratio curve, often small or poorly fitted; inconclusive = mostly compound fluorescence or quenching in the first reads; inactive = flat curves in all reads;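 also: potency is read from the fitted curve at half-maximal effect; 0% = DMSO wells and 100% = buffer wells lacking importin beta; nearly all actives have a fitted effect of over 15% in size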
# Target sequence (Q14974 whole entry, looked up): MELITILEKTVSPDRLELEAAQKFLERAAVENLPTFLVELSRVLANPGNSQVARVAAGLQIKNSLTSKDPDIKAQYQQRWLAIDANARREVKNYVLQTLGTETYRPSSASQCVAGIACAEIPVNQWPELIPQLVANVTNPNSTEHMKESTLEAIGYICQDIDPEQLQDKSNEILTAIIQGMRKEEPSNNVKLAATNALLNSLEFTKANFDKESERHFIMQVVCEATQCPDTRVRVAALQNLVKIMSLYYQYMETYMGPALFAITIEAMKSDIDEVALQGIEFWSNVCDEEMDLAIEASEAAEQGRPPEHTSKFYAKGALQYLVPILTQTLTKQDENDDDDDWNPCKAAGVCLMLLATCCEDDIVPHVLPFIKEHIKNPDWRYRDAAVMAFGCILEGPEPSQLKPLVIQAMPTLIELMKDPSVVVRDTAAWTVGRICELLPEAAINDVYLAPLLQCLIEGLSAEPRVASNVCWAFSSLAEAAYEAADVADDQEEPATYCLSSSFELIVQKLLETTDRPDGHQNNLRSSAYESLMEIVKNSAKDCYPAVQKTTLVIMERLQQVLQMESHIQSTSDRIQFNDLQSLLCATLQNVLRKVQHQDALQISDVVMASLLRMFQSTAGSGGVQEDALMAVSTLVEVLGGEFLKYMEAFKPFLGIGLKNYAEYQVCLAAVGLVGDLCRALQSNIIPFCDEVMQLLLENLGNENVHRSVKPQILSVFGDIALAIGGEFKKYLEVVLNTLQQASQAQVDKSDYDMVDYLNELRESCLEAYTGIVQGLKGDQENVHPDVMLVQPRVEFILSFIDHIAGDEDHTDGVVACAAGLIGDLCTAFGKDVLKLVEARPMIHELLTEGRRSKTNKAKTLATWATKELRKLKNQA
#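 FRET biosensor Rango (snurportin 1 IBB between N-terminal EYFP and C-terminal Cerulean), 50 nM in PBS/1 mM DTT/0.02% Tween-20/0.1% BSA, preincubated 5 min RT with compound; 0.125 microM importin beta added, 45 min RT, CFP/YFP FRET ratio read.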
# GLA inh pH 4.5 = inhibitors of human alpha-galactosidase A at pH 4.5. P06280. purified enzyme, 4-MU-alpha-Gal fluorescence, pH 4.5. activity change, negative = inhibition, % at 105 µM. 230,000 tested, under 10 active. AID 1467; inconclusive = small, poorly fitted or top-dose-only inhibition, or a rising curve; inactive = flat fitted curve, though single readings scatter; no compound was filed as active;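 also: 0% = full activity with enzyme and -100% = basal without enzyme; dose as in the result columns while the protocol names 77 µM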
# Rango release inh = inhibitors of RanGTP-induced Rango-importin beta complex dissociation | O95149+P62826 | Biochemical FRET Rango-importin beta, RanGTP-induced dissociation | Potency, µM (highest dose often 46.1 µM), inactives show at the highest dose activity change, negative = inhibition | 340,000 compounds, 0.071% hits; active means falling FRET ratio curve, often poorly fitted, with flat reads before Ran was added; inconclusive means other falling curves, or compound fluorescence or quenching; inactive means flat or rising ratio curve;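 also: potency is read from the fitted curve at half-maximal effect; % of control where 0% means no effect; nearly all actives have a fitted effect of over 45% in size; -100% = wells without RanGTP and RCC1; the record marks most hits as doubtful in a second field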
#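 Quantitative HTS using a FRET biosensor: 0.1 uM Rango, 0.25 uM importin beta, 0.6 uM Ran, 2 mM GTP, 0.2 uM RCC1 final, PBS with DTT, Tween-20 and BSA. Post-read taken 45 min after Ran addition.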
# Active calls of the source: *; ? = inconclusive; . = not tested or not shown; & = joins results of further samples. Not all compounds are listed; count on the stated rates, not on these rows.
structure,miR-21 reporter,Rango-impB inh,GLA inh pH 4.5,Rango release inh
O=C(O)CCCCCCCCc1cn(CN2C(=O)c3ccccc3C2=O)nn1,0.1%,?,.,?
CCOc1ccc(C(Nc2ccc(C)cc2)P2(=O)OCC(C)(C)CO2)cc1 (stereo unspecified),-12.4%,1.6%,9.8,0.2%
O=C(COc1ccc(Br)cc1Br)NC(=S)Nc1cccc(CO)c1,-72.3%,-3.5%,-6.0,-8.5%
CC(=O)NC(N1CCCCC1)C(F)(F)C(F)(F)C(F)(F)C(F)F (stereo unspecified),-0.3%,1.9%,2.3,19.0%
CCn1cc(/C=C(\NC(=O)c2ccccc2F)C(=O)NCCCN2CCOCC2)c2ccccc21,2.9%,-3.3%,.,0.8%
Nc1ccc(C2=Nc3cccc4cccc(c34)N2)cc1,-10.7%,-0.6%,-4.6,-11.9%
COc1ccc(Cl)cc1S(=O)(=O)N1CCC(C(=O)NCCC2=CCCCC2)CC1,-4.5%,-0.2%,.,-2.2%
COc1ccc(OC)c(NP2(=O)OCC(C)([N+](=O)[O-])CO2)c1 (stereo unspecified),.,-0.3%,.,0.3%
Cc1ccc(CNC(=O)C2CCCN2S(=O)(=O)c2ccc3c(c2)C(C)(C)C(=O)N3C)cc1 (stereo unspecified),-0.4%,0.4%,.,9.7%
COc1ccc(C2CC(C)=NN2C=O)cc1OC (stereo unspecified),-2.1%,3.9%,8.2,5.6%
CCC(C)Sc1ccc([C@@H]2[C@@H]3C(=O)N(CC)C(=O)[C@@H]3[C@]3(C(=O)OC)CCCCN23)cc1OC (stereo partly specified),.,-1.3%,.,-6.5%
Cc1ccnc(SC2CC(=O)N(c3ccc([N+](=O)[O-])cc3)C2=O)n1 (stereo unspecified),2.2%,0.6%,.,0.1%
Cc1onc(-c2ccccc2)c1-c1n[nH]c(=S)n1-c1ccccc1Cl,-1.5%,-1.1%,8.7,21.8%
CCn1c(SCC(=O)Nc2ccc(Cl)cc2)nc2nc3c(cc2c1=O)CCCC3,0.1%,1.8%,-2.7,1.1%
O=C(c1ccc(OC2CCN(C/C=C/c3ccc(F)cc3)CC2)cc1)N1CCCCC1,9.1%,1.5%,.,8.7%
CN(C(=O)c1ccc(-c2nn(C)c(=O)c3ccccc23)cc1)C1CCCCC1,23.3%,0.5%,.,-11.1%
CCCCOc1ccc(C2OC34CCCCC3C(C#N)(C#N)C2(C#N)C(=N)O4)cc1 (stereo unspecified),-2.0%,?,?,?
O=C(N/C(=C\c1ccc(Br)cc1)C(=O)N1CCOCC1)c1ccco1,-3.0%,1.4%,.,-3.4%
CCOC(=O)c1oc2ccccc2c1N,-39.1%,-0.2%,6.1,-9.5%
COc1ccc(C(=O)Sc2ccc(Cl)cc2)cc1OC,0.2%,0.0%,-9.7,-5.5%
CCOc1cccc(-c2nnc3sc(-c4cc(OC)c(OC)c(OC)c4)nn23)c1,-0.3%,1.2%,-0.9,3.6%
CN(CC(=O)Nc1ccc(N2CCOCC2)cc1)CC(=O)Nc1cccc(C#N)c1,-6.9%,2.0%,-1.1,?
COc1ccc(C)cc1S(=O)(=O)N1CCCC(C(=O)NC2CC2)C1 (stereo unspecified),-0.8%,0.1%,.,23.1%
COc1ccc(CNC(=O)c2cccc(-c3ccc(C)c4ccccc34)n2)cc1,3.9%,-2.9%,11.5,7.3%
COC(=O)c1cc(OC)c(OC)cc1N,-11.4%,-0.1%,5.4,7.7%
COc1ccc(C2C(C(C)=O)=C(O)C(=O)N2CCc2c[nH]c3ccccc23)cc1OC (stereo unspecified),-3.6%,0.2%,-0.8,-1.4%
COc1ccc2c(c1)[C@H]1[C@H](CO2)[C@H](c2ccccc2)[C@]2(C)C(=O)Nc3cc(OC)c(OC)cc3C(=O)N12,.,-2.3%,.,16.4%
Cc1cc(/C=C2\SC(=Nc3ccc(F)cc3)NC2=O)c(C)n1-c1ccc(S(N)(=O)=O)cc1,22.5%,?,-17.6,?
CCCCCCCC(=O)NC(Nc1ccc(S(N)(=O)=O)cc1)C(Cl)(Cl)Cl (stereo unspecified),9.7%,?,-1.1,-2.2%
Cc1[nH]n(-c2ccccc2)c(=O)c1C(C[N+](=O)[O-])c1ccc(F)cc1 (stereo unspecified),-1.3%,7.6%,4.8,-8.1%
C=CCC[C@@H](Cc1ccc(F)cc1)C(=O)OC[C@@H](C)NC(=O)[C@@H](CC=C)CC(=O)N[C@H](CO)Cc1ccccc1,.,-1.2%,.,19.9%
CC1(C)Cc2cccc(OCC(=O)O)c2O1,-4.5%,2.2%,-2.6,-10.3%
CCOC(=O)CSc1n[nH]c(=S)s1,-0.9%,-0.5%,-0.2,-1.1%
CCOC(=O)c1cc2c(=O)n3ccccc3nc2n(Cc2ccco2)c1=NC(=O)c1ccccc1OC,-2.4%&0.4%,?,?,?
O=C(NCC1(N2CCCCC2)CCCCC1)c1cccc(S(=O)(=O)Nc2ccccc2Cl)c1,.,?,.,-0.1%
CCN1CCN(CC2COc3ccccc3O2)CC1 (stereo unspecified),-2.2%,2.4%,.,7.5%
CCc1cccc(CC)c1-n1c(SCC(=O)N2CCCc3ccccc32)nc(O)cc1=O,.,-2.8%,.,-1.0%
CCOC(=O)C1C(=O)NC(N2CCc3ccccc32)=NC1c1ccccc1 (stereo unspecified),-7.6%,2.7%,-0.5,-2.2%
CCN1C(=O)/C(=C2\SC(=S)N(c3c(C)n(C)n(-c4ccccc4)c3=O)C2=O)c2ccccc21,-1.0%,-1.6%,8.0,-7.1%
Cc1noc(C)c1COc1ccccc1C(=O)N(C)CC(=O)Nc1ccc(F)c(F)c1F,.,-1.5%,.,0.3%
O=C(COC(=O)C1(c2ccc(F)cc2)CCCC1)NCc1ccc2c(c1)OCO2,15.1%,2.4%,-10.8,-3.3%
O=C(OCCN1CCOCC1)c1ccc2c(c1)OCCO2,-44.1%,-3.4%,11.0,1.9%
Cc1cccc2sc(NC(=O)CNS(=O)(=O)c3ccc(Br)s3)nc12,2.4%,?,1.8,0.7%
CCC(=Nc1ccc(N)cc1)C1=C(O)C(C(=O)OC)C(C)(C)CC1=O (stereo unspecified),-10.7%,?,1.8,?
Cc1ccccc1OCC(=O)Nc1nc(-c2ccncc2)cs1,.,-1.3%,.,1.9%
COc1ccccc1-c1nc2cc3ccccc3cc2nc1-c1ccccc1OC,-1.6%,-3.4%,-20.7,13.4%
CC1=Nc2cc(C(=O)NCCCOC(C)C)ccc2Sc2ccccc21,18.0%,-2.9%,2.2,5.7%
COc1ccc(/C=C(\C)C(=O)c2c(C)cc(C)[nH]c2=O)cc1,.,2.1%,.,-8.7%
COc1ccc(N(CCC#N)S(=O)(=O)c2cccc3nsnc23)cc1,-17.8%,3.2%,3.6,1.7%
Cc1ccc(C2/C(=C(/O)c3ccc(Br)cc3)C(=O)C(=O)N2Cc2ccco2)o1 (stereo unspecified),-0.8%,?,-1.5,3.4%
COc1cc2c(c(OC)c1OC)-c1c(cc3c(c1OC)OCO3)C1OC2[C@@H](C)[C@H]1C (stereo partly specified),14.9%,2.7%,1.9,7.3%
Cc1cc(C(=O)OCC(=O)N2CCN(c3ccccc3)CC2)c2ccccc2n1,-1.6%,0.4%,-5.2,11.1%
N#C/C(=C\c1ccc(-c2ccccc2)cc1)c1nc(-c2ccco2)cs1,-0.5%,-0.3%,0.0,?
CC(=O)Nc1ccc(C(=O)CSc2nccc(=O)[nH]2)cc1,0.0%,5.4%,0.3,23.9%
CN(Cc1ccc(F)cc1)C(=O)C(c1ccccc1)c1ccccc1,2.8%,-1.9%,.,-13.1%
CC(=O)Nc1ccc(S(=O)(=O)N2CCN(c3cccc(C)c3C)CC2)cc1,25.1%,-0.8%,-16.1,0.1%
N#C/C(=C\c1coc2ccccc2c1=O)C(N)=S,-4.9%,?,-5.8,-17.0%
CCn1c(SCC(=O)N/N=C(\C)c2ccncc2)nnc1-c1ccccc1,-5.2%,-0.4%,-3.4,-10.9%
CCn1c(SCC(=O)Nc2nnc(C)s2)nc2c(c1=O)SC(C)C2 (stereo unspecified),-0.8%,0.0%,4.4,7.3%
C[C@]12CCC(=O)C=C1CCC1C2CC[C@@]2(C)C1CCC21OCCO1 (stereo partly specified),.,-1.6%,.,-8.2%

# (continued)
structure,miR-21 reporter,Rango-impB inh,GLA inh pH 4.5,Rango release inh
Cn1cc([N+](=O)[O-])c(C(=O)N2CCCCCC2)n1,-1.2%,-5.7%,.,30.3%
O=C(c1ccc(NS(=O)(=O)c2cccc(C(F)(F)F)c2)cc1)N1CCCC1,-2.7%,-2.4%,.,-3.1%
CC(O)CNC1c2ccccc2CC1O (stereo unspecified),.,-0.1%,.,0.6%
CC1(C)NC(=O)N(CCCC(=O)Nc2ccc(C(F)(F)F)cc2)C1=O,.,-0.3%,.,-0.1%
COC(=O)c1ccc(C(=O)OC)c(NC(=O)CN(C)Cc2ccccc2)c1,-0.7%,3.1%,-6.5,-0.3%
CCOc1ccc(S(=O)(=O)n2ccc(C)n2)c2ccccc12,-10.3%,-3.1%,-15.0,-5.1%
CCN(C(=O)Cn1ccc(C(F)(F)F)n1)c1c(N)n(Cc2ccccc2)c(=O)[nH]c1=O,.,-0.8%,.,5.7%
Cc1ccc(NC(=O)CN(C)S(=O)(=O)c2cnc[nH]2)c(C)c1,-8.0%,-0.2%,.,-5.4%
COc1ccc(Cl)cc1NC(=O)COC(=O)C1CCCCC1,.,-0.4%,.,6.9%
COCCCNC(=O)c1cn(Cc2c(F)cccc2Cl)nn1,-14.3%,1.9%,2.6,2.0%
CCCNC(=O)c1ccccc1NC(=O)C1=CSCCO1,2.3%,-2.8%,.,24.4%
Cc1c(NC(=S)NC(=O)c2ccc(-c3ccc(Cl)cc3)o2)cccc1C(=O)O,-10.2%,0.4%,-1.4,-7.4%
Cn1ccnc1C1CCCCN1Cc1nc(-c2ccc(Cl)cc2)no1 (stereo unspecified),-2.6%,-1.2%,-2.4,1.0%
CCCN1CCN(C(=O)CCNC(=O)Cn2cnc3ccccc3c2=O)CC1,5.8%,4.7%,.,3.5%
O=C(NCCO)/C(=C\c1ccc2c(c1)OCO2)NC(=O)c1ccc(Br)cc1,-8.3%,-2.4%,-5.8,9.7%
Cc1cc(NC(=O)/C(C#N)=C/c2ccc(-c3ccc(SC(F)F)cc3)o2)n(-c2ccccc2)n1,-4.2%,?,-7.1,?
CC(Sc1nc2ccccc2s1)C(=O)N(C)Cc1ccccc1 (stereo unspecified),-9.2%,0.1%,.,1.2%
COc1ccccc1CN(CC(=O)NCc1ccc2c(c1)OCO2)C(=O)c1csnn1,-1.6%,-1.1%,.,-7.6%
C/C=C/c1ccc(OCC(=O)Nc2ccc(OC)c(OC)c2)c(OC)c1,2.1%,-0.1%,0.6,0.4%
Cc1ccc(C(C)C)cc1OCCCCN1CCCC1,-3.5%,3.5%,-10.2,3.3%
CCCCn1nnc(NC(=O)COc2ccc(Cl)c(C)c2)n1,-1.9%,0.3%,-1.8,-9.4%
Nc1cc(=O)[nH]c(SCC(=O)N2CCCc3ccccc32)n1,-5.6%,0.0%,5.0,14.7%
CC1(C)CC(=O)C(C=NCc2ccc3c(c2)OCO3)=C(O)C1,-22.3%,-0.5%,2.5,-2.4%
C=CCn1c(SCC(=O)N2CCc3ccccc3C2)nnc1-c1ccncc1,-6.7%,3.1%,1.0,-12.3%
C[N+](C)(C)CCCCCCC(=O)/C=N/O,2.8%,0.8%,0.0,-2.7%
COc1cccc(OCC(Cn2cnc3ccccc32)OC(C)=O)c1 (stereo unspecified),1.4%,-0.9%,1.8,-25.3%
Cc1cccc(/C=C2\Sc3ccc(C(=O)N4CCOCC4)cc3N(C)C2=O)c1,11.0%,-0.7%,.,1.0%
